# hNpr1 antagonist – blocks ANP-stimulated signaling of human Npr1 receptor; HEK293 hNpr1 GloSensor cGMP, ANP-stimulated luminescence; Potency, µM (highest dose often 46.3 µM), for the others: at the top dose activity change, negative = inhibition, most hits filed as inhibitors; 76,000 compounds, 1.6% hits; AID 1347048; active = well fitted inhibition curve with a large enough effect; inconclusive = small, poorly fitted or top-dose-only effect; inactive = no such curve, though single readings can be large or run the other way;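 note: nearly all actives have a fitted effect of over 60% in size; nearly all hits also lower the signal before the agonist is added; a reference antagonist and vehicle were the controls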
# Target sequence (P16066 whole entry, looked up): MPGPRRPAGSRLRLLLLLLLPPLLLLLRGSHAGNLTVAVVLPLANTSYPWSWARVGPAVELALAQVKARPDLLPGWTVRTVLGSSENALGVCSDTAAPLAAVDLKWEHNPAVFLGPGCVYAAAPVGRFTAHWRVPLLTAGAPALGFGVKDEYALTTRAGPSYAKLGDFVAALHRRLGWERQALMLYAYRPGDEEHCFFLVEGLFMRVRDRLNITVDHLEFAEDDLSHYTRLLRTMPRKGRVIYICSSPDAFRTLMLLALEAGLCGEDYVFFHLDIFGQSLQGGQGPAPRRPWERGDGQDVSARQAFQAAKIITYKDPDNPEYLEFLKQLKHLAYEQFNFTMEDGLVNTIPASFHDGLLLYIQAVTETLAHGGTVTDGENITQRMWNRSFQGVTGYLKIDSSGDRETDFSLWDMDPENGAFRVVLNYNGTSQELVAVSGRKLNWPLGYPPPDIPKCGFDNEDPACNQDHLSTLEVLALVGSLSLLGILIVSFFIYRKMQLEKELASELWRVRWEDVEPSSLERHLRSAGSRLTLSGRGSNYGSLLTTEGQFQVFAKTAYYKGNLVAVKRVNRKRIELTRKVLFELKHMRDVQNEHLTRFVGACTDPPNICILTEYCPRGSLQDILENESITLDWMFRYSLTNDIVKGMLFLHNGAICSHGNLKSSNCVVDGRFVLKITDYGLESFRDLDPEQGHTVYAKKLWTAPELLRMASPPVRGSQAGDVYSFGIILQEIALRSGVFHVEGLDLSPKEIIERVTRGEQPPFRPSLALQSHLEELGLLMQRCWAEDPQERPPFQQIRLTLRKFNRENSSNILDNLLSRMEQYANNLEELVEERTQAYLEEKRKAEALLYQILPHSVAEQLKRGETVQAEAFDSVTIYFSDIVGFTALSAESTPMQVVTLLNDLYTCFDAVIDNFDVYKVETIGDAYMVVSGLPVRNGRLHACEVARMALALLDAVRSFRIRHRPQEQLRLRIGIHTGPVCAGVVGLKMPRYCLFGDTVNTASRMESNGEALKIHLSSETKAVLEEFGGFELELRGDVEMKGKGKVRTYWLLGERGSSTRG
#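 HEK293 cells stably expressing human Npr1 and cGMP GloSensor pGS-40F, loaded 2 h with 2% GloSensor reagent, given compound 30 min at room temperature. Luminescence read before and 20 min after 0.1 nM hNppA.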
# * = called active by the depositor; ? = inconclusive; [ ] = another dose, or the depositor's remark. % is set by controls: 0 for no effect and ±100 for the full control effect; potency is the fitted concentration of half-maximal effect. Not all compounds are listed; count on the stated rates, not on these rows.
# The opening six records, ahead of the listing:
item	structure	hNpr1 antagonist
1	CC[C@H]1CN(C(=O)C(C)(C)C)CC[C@H]1CC(=O)NCc1cccnc1	3%[70.6 µM]
2	O=C(Nc1ccc(F)c(Cl)c1)C1CCN(C(=O)c2ncn3c2COC(c2ccccc2)C3)CC1 (centres undefined)	?
3	CCc1nc(-c2c3n(c(=O)n(Cc4cc(=O)n5ccccc5n4)c2=O)CCCC3)no1	0%
4	Cc1cccc(CNC(=O)c2cc3c(=O)[nH]c(C)cn3n2)c1	24%
5	CCOc1ccccc1C1NC(=O)N(CC(=O)Nc2cccc(C#N)c2)C2=C1C(=O)OC2 (centres undefined)	5%
6	COc1ccc(Cc2ncc3c(n2)CN(C(=O)c2ccc(F)c(C)c2)C3)cc1	-8%

# The list itself, previewed entries included:
item	structure	hNpr1 antagonist
1	CC[C@H]1CN(C(=O)C(C)(C)C)CC[C@H]1CC(=O)NCc1cccnc1	3%[70.6 µM]
2	O=C(Nc1ccc(F)c(Cl)c1)C1CCN(C(=O)c2ncn3c2COC(c2ccccc2)C3)CC1 (centres undefined)	?
3	CCc1nc(-c2c3n(c(=O)n(Cc4cc(=O)n5ccccc5n4)c2=O)CCCC3)no1	0%
4	Cc1cccc(CNC(=O)c2cc3c(=O)[nH]c(C)cn3n2)c1	24%
5	CCOc1ccccc1C1NC(=O)N(CC(=O)Nc2cccc(C#N)c2)C2=C1C(=O)OC2 (centres undefined)	5%
6	COc1ccc(Cc2ncc3c(n2)CN(C(=O)c2ccc(F)c(C)c2)C3)cc1	-8%
7	COc1ccc(CN2C(=O)[C@@H]3C[C@@H](CN3C3CCC3)Oc3ccccc32)cc1	?
8	COc1ccc(CNC(=O)NCC(=O)N2CCCCCCNC(=O)CC2c2ccccc2)cc1 (centres undefined)	-21%
9	CC(C)NC(=O)C1(CCO)CC12CCOCC2 (centres undefined)	3%
10	CCCCN1C(=O)c2ccccc2C(C(=O)NCCC)C12CCCCC2 (centres undefined)	-2%
11	COc1ccc(-c2cn3c(n2)CO[C@@H](CNS(C)(=O)=O)C3)cc1	-1%[70.6 µM]
12	COCC1CN(C(C)=O)CC12CCN(C(=O)c1ccsc1)CC2 (centres undefined)	3%
13	COc1cc(OC)c(C(=O)N2CCC3(CC2)[C@H](O)C[C@@H]3OC)cc1OC	2%
14	Cc1nccn1CC1(CNc2ccncn2)CC1	-1%
15	Cc1ccc(C(=O)N2CCC(n3cc(-c4nc(-c5ccccc5)no4)nn3)CC2)cc1	-21%
16	COCC(=O)N1CCN(CC(=O)Nc2ccc(C)cc2)[C@H]2CS(=O)(=O)C[C@H]21	-1%
17	Cn1cc(CNCC2(COc3ccc(C(F)(F)F)cn3)C[C@@H](O)[C@@H](O)C2)cn1 (some centres undefined)	2%
18	CS(=O)(=O)c1ccc(CN2CCOC[C@H]2c2ncc(-c3ccc(Cl)cc3)[nH]2)cc1	-10%[70.6 µM]
19	O=C(Cn1nc2c(cc1=O)CCCC2)Nc1nc(-c2ccccn2)cs1	6%
20	Cc1cccc(OCC(=O)N2CCC3(CC2)NC(=O)N(c2cccc(F)c2)N3)c1	7%
21	Cc1nc(CCN(C)C(=O)c2ccc3nc(Cc4ccccc4F)oc3c2)no1	-2%
22	Cc1nc(CCNC(=O)NC2CCCCC2)no1	6%
23	Fc1ccc2c(c1)nc1n2[C@@H](CNC2CCOCC2)COC1	6%[70.6 µM]
24	O=[S+]([O-])(Nc1ccccc1)c1ccc2c(c1)OCCN(Cc1cocn1)C2	-2%[70.6 µM]
25	CO[C@H]1C(=O)N(C2CCN(C(=O)c3cccc(C#N)c3)CC2)[C@H]1c1ccncc1	6%
26	COc1ccc(C[C@H](NC(=O)C2=C[C@@H](NC(=O)CC3(CC(=O)O)CCCC3)[C@@H](O)[C@H](O)C2)C(N)=O)cc1	5%
27	CCc1cccc(NC(=O)Cn2c(-c3ccc(Cl)cc3)nc(C)c(CCO)c2=O)c1	-17%
28	CC(C)N1C(=O)C2(CCCCC2)C1C(=O)NC1CCCC1 (centres undefined)	-1%
29	COc1ccc2c(c1)C=C(CN1CCCC(O)(CN(C)C)C1)CO2 (centres undefined)	5%
30	COc1ccc(NC(=O)CN2C(=O)NC3(CCS(=O)(=O)CC3)C2=O)cc1Cl	5%
31	CN(Cc1ccc(-c2ccccc2)cc1)Cc1ccccn1	-20%[70.6 µM]
32	COCCNc1ncc(-c2ccc(O)c(OC)c2)c2c1OCC2	1%[70.6 µM]
33	CCN1C(=O)CCN(C(=O)C2(c3ccc(OC)cc3)CC2)CC12CCOCC2	0%
34	O=C(NC1CCCC1)N1CC2CC(C1)[C@H]1CCCC(=O)N1C2 (some centres undefined)	2%
35	O=C(c1ccc(F)cc1)N1CCCN(Cc2ccc3c(c2)OCO3)c2ccccc21	-15%
36	Cc1ccc(C(=O)N2CCCC3(CC(c4cccc(C(F)(F)F)c4)=NO3)C2)cc1 (centres undefined)	6%
37	NCCc1noc(-c2cccnc2)n1	-2%
38	CCN(CC)C(=O)[C@@H]1C[C@@H](NC(=O)c2cc3c(s2)CCCC3)CN1C	1%
39	Cc1ccc(C(=O)N2CCC3(CC2)N(c2ccccc2)C(=O)CS3(=O)=O)s1	2%
40	CN1CCN(c2ccc(-c3noc([C@@H]4CCCN4CCCc4ccccc4)n3)cn2)CC1	4%[70.6 µM]
41	Cn1cc(CCC(=O)N2CCC3(CC2)CC(c2ccccc2)C(=O)N3)cn1 (centres undefined)	-2%
42	CC(C)c1cc(C(=O)N(C)CCc2noc(C3CC3)n2)nc2ncnn12	1%
43	COc1ccccc1C(=O)N1CCCC(c2nn(C)c(=O)n2C(C)C)C1 (centres undefined)	6%
44	COc1ccc(CN2CCc3ncc(C(=O)NCC4CC4)n3CC2)cn1	-2%[70.6 µM]
45	O=C(c1cccc(Cl)c1)N1CCC2(CC1)N=C(c1ccc(Br)cc1)NO2	1%
46	Cc1ccc(CN2C(=O)[C@@H]3C[C@@H](O)CN3C3(CN(Cc4ccccc4Cl)C3)C2=O)o1	5%[70.6 µM]
47	O=C(c1cccs1)N1CCN(Cc2ccc(=O)n(CC3CC3)c2)CC1	?
48	CC(=O)N1CC(CO)C2(CCN(C(=O)Cc3ccccc3Cl)CC2)C1 (centres undefined)	-17%
49	N#Cc1ccc(C(=O)N2C[C@@H](Oc3ccccc3)C[C@H]2C(=O)N2CCOCC2)cc1	4%
50	CCn1c(C2CCN(S(=O)(=O)c3cccc(Br)c3)CC2)nn(C)c1=O	2%

# (more compounds)
item	structure	hNpr1 antagonist
51	C[C@H]1CN(C(=O)Nc2cc(F)cc(F)c2)C[C@@H]1c1nc(-c2ccncc2)no1	0%
52	O=C(Cn1ccn2nc(-c3ccccc3)c(CO)c2c1=O)NC1CCCC1	0%
53	c1ccc2c(c1)CC(Cc1nc(C3CCOC3)n[nH]1)C2 (centres undefined)	0%
54	CC(C)CN1CC[C@H](c2nc3ccccc3n2C)C1	0%[70.6 µM]
55	O=C(N1CC(c2nnc(-c3ccncc3)o2)C2(CCOCC2)C1)C1(c2ccccc2)CC1 (centres undefined)	0%
56	CC(C)(O)CCc1ccc(C(=O)NCc2nc(-c3ncccn3)no2)cc1	-2%
57	CCN(Cc1noc(C2CCC2)n1)C(=O)C(C)Oc1ccc2ccccc2c1 (centres undefined)	11µM*
58	COc1ccc(C2Cn3nnc(-c4nc(-c5ccc(OC(C)C)cc5)no4)c3CO2)cc1 (centres undefined)	-12%
59	COc1ccc(C(=O)N(C)C2CCCc3ccccc32)cc1 (centres undefined)	14%[70.6 µM]
60	CN(C)c1ccc(CN2CCOC[C@H]2c2ncc(-c3ccc(F)cc3F)[nH]2)cc1	-16%[70.6 µM]
61	Cc1cc(C(=O)N2CCOC[C@H](Oc3cccnc3)C2)c(C(F)(F)F)o1	1%[70.6 µM]
62	O=C(c1cc(F)ccc1F)N1CCOc2ccc(CN3CCc4ccccc4C3)cc2C1	-15%
63	COCCn1ncc(N2CCCC(CC(=O)NCC3CC3)C2)cc1=O (centres undefined)	8%
64	O=C(C1CC1)N1CCC(c2nn(-c3ccccc3)c(=O)[nH]2)CC1	15%[70.6 µM]
65	COc1ccc(CN2C[C@@H](F)[C@@H](OCc3nc4ccc(F)cc4[nH]3)C2)cn1	-11%[70.6 µM]
66	COc1ccc(Cl)cc1C(=O)NCc1nnc2cc(-c3nc(C(C)C)no3)ccn12	1%
67	CCCCNC(=O)c1ccc(CN2C(=O)NC3(CCS(=O)(=O)CC3)C2=O)cc1	0%
68	CS(=O)(=O)c1ccc(O[C@H]2COCCN(C(=O)c3cnccn3)C2)cc1	3%[70.6 µM]
69	Cc1ccc(N2CCC3(CCCN3Cc3ccc4nsnc4c3)CC2)nn1	4%
70	CN[C@@H](C)C(=O)N1CC[C@H](NC(=O)Cc2cccs2)C[C@H]1C(=O)N[C@@H](Cc1ccc(OC)cc1)C(N)=O	-2%
71	C=CCNC(=O)CC1CCCN(c2cnn(C)c(=O)c2)C1 (centres undefined)	19%
72	CCc1nc2c(=O)n(CC(=O)NCc3cc(C)ccc3C)nc(C)c2s1	-2%
73	CCCc1noc(-c2cn(C3CCN(C(=O)c4ccccc4)CC3)nn2)n1	-10%
74	CC(C)NC(=O)N[C@H]1CCN2C(=O)c3ccccc3NC(=O)[C@@H]2C1	5%[70.6 µM]
75	COc1ccc(N2CCN(C(=O)COc3cccc(-c4nnc5n4CCCC5)c3)CC2)cc1	3%
76	CN1C[C@H](NC(=O)NC2(c3ccccc3)CCOCC2)CCC[C@@H](C(=O)N(C)Cc2cccnc2)CC1=O	-3%
77	O=C(Cc1cc(F)c(F)c(F)c1)N1CCC(Cc2cccc(CO)c2)C1 (centres undefined)	1%
78	Cc1ccc(C(=O)N2[C@@H]3CC[C@H]2CC(NC(=O)c2cnc(C)cn2)C3)c(C)c1 (some centres undefined)	-1%
79	Cc1noc(C)c1C1CCCN1C(=O)c1cccc(-n2cnnc2)c1 (centres undefined)	0%
80	O=C(Cn1cccc1-c1nc(-c2ccc(F)cc2)no1)Nc1cc(F)cc(F)c1	3%
81	CCn1c(CO)nnc1C1CC(NC(=O)c2nc(-c3ccccc3)[nH]c2C)C1 (centres undefined)	4%
82	COCC(=O)NC[C@H]1O[C@H](Cc2cc(-c3ccccn3)on2)CC[C@@H]1O	0%[70.6 µM]
83	COc1ccccc1CNC(=O)CN1CCCC(CO)(CC2CC2)C1 (centres undefined)	-17%
84	Cc1nncn1C1CCN(S(=O)(=O)c2ccc(F)c(Cl)c2)CC1	-11%
85	COc1ccc(CC(=O)NC2CCc3nnc(C4CC4)n3CC2)cc1 (centres undefined)	2%
86	CCCS(=O)(=O)N1CCC(N2C(=O)C(OC)C23CCOCC3)CC1 (centres undefined)	5%
87	CC(C)CNC1(Cc2cc(-c3cccc(O)c3)on2)COC1	-1%[70.6 µM]
88	CCOc1ccc(CN2CCN(c3nc(C)cc(NC)n3)CC2CCO)cc1 (centres undefined)	6%
89	COCCNC(=O)C1COC2(CCN(C(=O)c3ccc(F)cc3)CC2)N1C(=O)c1ccccc1 (centres undefined)	-3%
90	COc1ccccc1CNC[C@H]1Cn2c(-c3ccccc3)cnc2CO1	-24%[70.6 µM]
91	CCC(CC)NCc1cccnc1Oc1ccccc1	8%
92	CS(=O)(=O)N(C1CCOCC1)C1CN(C(=O)Nc2ccccc2F)C1	-6%
93	Cc1nn2cc(CCNC(=O)C3NCCc4[nH]cnc43)nc2s1 (centres undefined)	3%
94	O=C(c1n[nH]c2ccccc12)N1CCC(c2nc(CCOCC3CCOCC3)no2)C1 (centres undefined)	-1%
95	CN(Cc1ccncc1)C1CCOc2ccccc21 (centres undefined)	0%[70.6 µM]
96	CN1C(=O)CCC2(CNC(=O)c3cnccn3)CCCC=C12 (centres undefined)	2%
97	Cc1noc(-c2ccn3c(CNC(=O)c4ccc(N(C)C)cc4)nnc3c2)n1	-1%
98	CNC(=O)N1CCC(C2CCN(C(=O)NCCCOC)C2)CC1 (centres undefined)	-1%
99	COc1ccc(NC(=O)N2C[C@@H](F)C[C@H]2C(=O)N2CCCCC2)cc1	-1%
100	CCCCc1ncc(-c2c(-c3ccccc3)ncn2CCCn2ccnc2)[nH]1	0%

# Sorted by value in hNpr1 antagonist (low to high): some entries from above.
No.	mol	hNpr1 antagonist
92	CS(=O)(=O)N(C1CCOCC1)C1CN(C(=O)Nc2ccccc2F)C1	-6%
76	CN1C[C@H](NC(=O)NC2(c3ccccc3)CCOCC2)CCC[C@@H](C(=O)N(C)Cc2cccnc2)CC1=O	-3%
98	CNC(=O)N1CCC(C2CCN(C(=O)NCCCOC)C2)CC1 (centres undefined)	-1%

# Going on with the list.
item	structure	hNpr1 antagonist
101	CN(C)[C@@H]1CN(C(=O)C2CCCC2)CC[C@@H]1CO	4%
102	CNC(=O)[C@@H]1C[C@H](n2cc(CNC(=O)Nc3ccc(Cl)cc3C)nn2)CN1	-3%
103	CCOc1ccccc1C(=O)NC1CCN(c2cc(-c3ccc(F)cc3)[nH]n2)C1 (centres undefined)	-25%
104	CNCC(=O)N1CCCC(N2CCN(c3ccc(OC)cc3)CC2)C1 (centres undefined)	6%
105	CCC1Oc2ccc(NC(=O)c3ccccc3F)cc2CN(Cc2ccccc2F)C1=O (centres undefined)	-3%
106	CCN(CCNC(=O)CCc1cc2cc(OC)ccc2[nH]c1=O)Cc1ccccc1	-1%
107	c1ccc2c(c1)OCC(CCn1ccnc1-c1cc3n(n1)CCNC3)O2 (centres undefined)	-7%
108	Clc1ccc(C2Cn3nnc(-c4nc(-c5ccc6c(c5)OCO6)no4)c3CO2)cc1 (centres undefined)	4%
109	CNC(=O)CCn1ncc2cc(OCc3ccccc3-c3c(C)noc3C)ccc21	-22%[70.6 µM]
110	COc1ccc(C2Cn3nnc(C(=O)NC4CCCCCCC4)c3CO2)cc1 (centres undefined)	?
111	CCOc1ccc(NC(=O)Cn2c(=O)c(-c3noc(C)n3)c3n(c2=O)CCCC3)cc1	0%
